Vif A3G: inhibitors of Vif binding to APOBEC3G peptide, primary screen, biochemical, TR-FRET, GST-Vif 1-94, biotin-A3G peptide, dose response retest (AID 1117319) | TR-FRET GST-Vif / biotin-A3G peptide binding; higher % means a stronger effect; test concentration not given here; strong numbers were not always called active | inhibition, %; hits with a dose series show IC50 in µM | actives 0.57% (n = 260,000);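 active = above the screen mean plus three standard deviations and confirmed in dose response; inconclusive = results disagree or hit not tested in dose response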;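 note: Vif residues 1-94 fused to GST binding biotinylated APOBEC3G peptide 110-148; 0% = full assay without inhibitor and 100% = GST in place of GST-Vif; retest series ran down from 100 µM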
HNF4A DNA FP: change in binding of human HNF4 alpha to DNA | actives 0.3% (n = 360,000) | activity change, % at 10 µM | P41235 | HNF4a-FITC DNA binding, fluorescence polarization, 1 h; in the data active = activity change above about 30%, passing the limit was not always enough;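 note: controls were the assay level and a saturating level of protein; the project sought stronger binding though the title names inhibitors; some compounds called inactive have numbers as strong as hits; positive values seem to mean higher polarization but the record does not say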
UCH37 inh: human UCH37 deubiquitinating enzyme inhibition. Q9Y5K5. purified proteasome/UCH37, Ub-AMC cleavage fluorescence. inhibition, % (concentration not given with the values). actives 0.33% (n = 330,000);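 active = mean of two replicates above 20%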;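 note: 0% = compound-free wells with enzyme and 100% = wells lacking proteasome; stock transfer was 100 nL into about 20 µL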
Target sequence (Q9Y5K5 whole entry, looked up): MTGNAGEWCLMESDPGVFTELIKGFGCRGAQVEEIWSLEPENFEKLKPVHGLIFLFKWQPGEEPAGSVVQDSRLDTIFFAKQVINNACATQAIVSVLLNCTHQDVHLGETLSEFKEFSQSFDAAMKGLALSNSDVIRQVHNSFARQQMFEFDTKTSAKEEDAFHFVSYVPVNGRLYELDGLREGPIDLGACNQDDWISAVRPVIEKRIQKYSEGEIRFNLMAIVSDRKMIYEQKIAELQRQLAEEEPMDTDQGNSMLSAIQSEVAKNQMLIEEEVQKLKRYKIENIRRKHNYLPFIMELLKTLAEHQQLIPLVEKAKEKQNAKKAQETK
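Signal – fluorescence, ex 355 nm, em 460 nm · System – Proteasome-bound UCH37 · Input – 0.15 nM proteasome as dispensed · Timing – 30 min preincubation with enzyme, 25 min cleavage at room temperature · Read-out basis – percent inhibition of cleavage signal versus uninhibited and no-proteasome wells · Medium – Tris-HCl pH 7.4 with ATP-MgCl2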
Beta2AR agonist: agonists of human beta-2 adrenergic receptor inducing internalization | P07550 | Am2.2-beta2AR cells, FAP receptor internalization, flow cytometry; reference of the scale not given here | response, % (concentration not given with the values) | actives 0.43% (n = 340,000) | AID 504454;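 active = response above a set limit, near 3 SD of response in nonfluorescent compounds, cut at about 42% in these data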;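 note: stock transfer was 100 nL into about 11 µL; a reference agonist was the positive control; negative values mostly stem from fluorescent compounds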
Target sequence (P07550 whole entry, looked up): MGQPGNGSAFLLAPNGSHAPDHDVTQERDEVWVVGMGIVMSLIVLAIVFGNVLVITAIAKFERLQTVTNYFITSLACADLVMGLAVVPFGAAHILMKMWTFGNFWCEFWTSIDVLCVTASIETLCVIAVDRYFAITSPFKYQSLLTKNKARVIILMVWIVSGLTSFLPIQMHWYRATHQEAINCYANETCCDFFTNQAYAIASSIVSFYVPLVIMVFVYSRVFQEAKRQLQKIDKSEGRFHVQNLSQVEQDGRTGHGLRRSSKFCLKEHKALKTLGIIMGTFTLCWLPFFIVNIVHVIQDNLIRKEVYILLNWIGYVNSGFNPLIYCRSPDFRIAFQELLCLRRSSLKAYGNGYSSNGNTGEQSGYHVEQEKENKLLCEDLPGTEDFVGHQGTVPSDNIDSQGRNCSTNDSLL
A1 inh: inhibitors of the anti-apoptotic protein A1, read as caspase activation | caspase activation, % (concentration not given with the values) | actives 0.066% (n = 330,000) | MEF A1-2A-BIM cells, Caspase-Glo 3/7 luminescence, 3 h; percent of clofoctol response, vehicle zero | AID 2462;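 active = over half of replicate activation scores above 10%, or exactly half above 10 with the replicate mean above 10; inconclusive = replicate mean below 10 yet half the replicates above 10; inactive = over half of replicates below 10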;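 note: wells of about 30 µL received 50 nL stock; many hits fall short of the cut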
LANA-H2B inh: blocks KSHV LANA binding to histone H2A/H2B; Q9QR71; cell-free LANA-H2A/H2B peptide, fluorescence polarization; inhibition, % (concentration not given with the values); actives 0.6% (n = 320,000); in the data active = inhibition mostly above about 10%, no sharp cut-off; inactive = mostly below about 6.7%;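 note: stock transfer was 7.5 nL into about 10 µL; 0% = median of vehicle wells and 100% = median of positive control wells; one replicate is shown; the record names a cut of 25% in any replicate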
E coli growth: inhibitors of Escherichia coli growth; OD600, 23 h; hits give low values; OD600 absorbance (test concentration not listed); actives 0.21% (n = 330,000);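 active = OD600 absorbance below the run mean of sample wells minus 3.6 SD, in any replicate, cut at about 0.56 in these data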;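 note: stock transfer was 300 nL into about 60 µL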
Active calls of the source: *; ? = inconclusive; . = no result given.

SMILES	Vif A3G	HNF4A DNA FP	UCH37 inh	Beta2AR agonist	A1 inh	LANA-H2B inh	E coli growth
COc1ccc(C(C(=O)NC2CCCC2)N(CCN(C)C)C(=O)c2snc(C(N)=O)c2N)cc1 (stereo not drawn)	-8%	-0.6	-34	-3	-0.9	1.7	0.71
O=C(CSCc1ccc(Cl)cc1)N1CCOCC1	-4%	5.6	1.3	-2	1.1	-3.2	0.67
CC1(C)Cc2c(cnn2-c2cccc(F)c2)C(NC(=O)c2ccc[n+]([O-])c2)C1 (stereo not drawn)	.	2.3	-0.5	-4	2.2	-9.2	0.66
Cc1ccc2nc(-c3cccnc3)cc(C(=O)N3CCN(c4ccc([N+](=O)[O-])cc4)CC3)c2c1	-3%	-4.1	6.8	15	0.5	3.6	0.7
O=C(Nc1nnc(-c2ccccc2)o1)c1cc(-c2cccs2)nc2ccccc12	20%	0.9	-30	-1	-0.7	15*	0.71
O=C(Nc1c(C(=O)NCc2ccco2)cnn1-c1ccccc1)c1ccc(F)cc1	3%	-1.6	-0.6	4	2.0	-1.9	0.68
CCOC(=O)c1ccc(N2C(=O)c3n[nH]c(C)c3C2c2ccc(OC)c(OC)c2)cc1 (stereo not drawn)	5%	1.5	7.5	-10	0.1	-0.4	0.66
Cn1ccnc1SCc1nc2c(cnn2-c2ccccc2)c(=O)[nH]1	14%	-0.3	-0.6	-5	-0.1	0.7	0.69
CC(=O)N/C(=C\c1ccccc1)C(=O)Nc1ccccc1C	5%	-1.3	0.1	-7	1.2	-0.6	0.69
COCCn1c(C)nnc1SCC(=O)NNC(=O)c1ccc(Cl)cc1	.	0.3	-2.4	-4	-0.4	-0.4	0.66
N#Cc1cc([N+](=O)[O-])ccc1NCC1CCCO1 (stereo not drawn)	12%	-3.6	11	-1	0.0	4.5	0.64
Cc1noc(C)c1COc1cccc(C(=O)Nc2ccc(C#N)cc2)c1	8%	3.0	0.3	2	0.2	-1.5	0.68
COc1ccc(N(CC(=O)N2CCc3ccccc32)S(=O)(=O)c2c(C)noc2C)cc1	-1%	-2.0	-1.5	-6	0.2	-0.4	0.71
CCOc1ccc2nc(NC(=O)C3CCN(c4cnccn4)CC3)sc2c1	-11%	-5.3	-58	7	2.3	0.9	0.73
COc1cc(/C=N/NC(=O)c2cncc(Br)c2)cc([N+](=O)[O-])c1O	.	11	.	15	-6.7	1.3	.
COC(=O)CNC(=O)C1(C)C=CCN1C(=O)c1ccccc1 (stereo not drawn)	-5%	-2.8	1.8	-1	-2.8	-3.4	0.65
CCN(CC)CCNC(=O)c1ccc2c(c1)NC(=O)c1ccccc1S2	0%	3.3	2.5	7	-0.3	0.7	0.67
COc1ccc(NS(=O)(=O)c2cc(NS(=O)(=O)c3cccs3)ccc2C)cc1	3%	-3.7	1.1	-1	.	.	0.65
Cc1ccc(C(=O)OCC(=O)Nc2ccc3[nH]c(=O)[nH]c3c2)cc1S(=O)(=O)N1CCOCC1	-1%	-5.2	-1.2	4	1.1	8.8	0.69
O=C(Nc1nccs1)c1ccc2c(c1)OCO2	.	-1.9	.	-7	0.3	1.3	.
Cc1ccc(N2C(=O)[C@@H]3[C@H](C2=O)[C@H]2C=C(C(=O)c4ccccc4)C=CN2[C@@H]3C(=O)c2ccc(Cl)cc2)cc1	7%	11	2.5	7	-0.3	-4.9	0.7
CC(=O)Nc1c(I)c(C(=O)N[C@H]2C(O)O[C@H](CO)[C@@H](O)[C@@H]2O)c(I)c(N(C)C(C)=O)c1I (stereo partly drawn)	.	1.4	3.7	3	-0.2	-2.3	.
CCCC[C@H](CN[C@@H](CNC)[C@H](C)CC)NCCC12CCC(CC1)C2	.	0.1	4.8	11	-0.2	4.3	.
O=C1CCCC(=O)C1=C1SCCCS1	-1%	-2.9	3.6	-3	0.4	-0.8	0.72
CC(C)C(=O)Nc1cccc(NC(=O)c2cc3ccccc3o2)c1	0%	3.1	3.0	-2	-11	0.2	0.69
COc1ccc(C(=O)NCCCNC(=O)c2ccc(C)nc2)cc1	.	6.2	2.6	1	0.0	-4.9	0.68
O=C(Nc1c(Cl)cccc1Cl)c1ccc(-c2ccccc2)cc1	?	-2.4	1.1	-3	-0.1	-1.8	0.7
CS(=O)(=O)N1CCC(C(=O)N2CCN(C(c3ccccc3)c3ccccc3)CC2)CC1	1%	-2.6	1.2	12	1.0	-2.5	0.69
O=C(Nc1ccc2nc(-c3cccs3)[nH]c2c1)c1ccco1	13%	0.9	-11	-14	-5.1	-2.4	0.64
Cn1cc(CN2CCC(C(O)c3cccs3)CC2)c(-c2cccc(Cl)c2)n1 (stereo not drawn)	2%	-1.5	0.5	-1	0.0	6.5	0.63
COc1ccccc1-c1ccc2nnc(SCC(=O)N3CCCC3)n2n1	-2%	1.5	-40	2	0.1	-1.3	0.59
CCCc1nc(SCc2ccc(Cl)cc2Cl)n[nH]1	31%	3.5	1.3	-14	0.3	-2.9	0.71
CCOc1ccccc1NC(=O)NCc1cccnc1	7%	2.8	1.2	-7	0.3	0.9	0.65
O=C(CSc1nnnn1-c1ccccc1)Nc1ccccc1	.	2.5	0.3	6	0.3	-3.6	0.69
CCCCCc1nnc(NC(=O)c2ccc3nc[nH]c3c2)s1	-1%	3.3	1.2	11	-0.1	0.7	0.66
CC(C)C[C@@H]1NC(=O)[C@H](CO)NC(=O)c2cc([N+](=O)[O-])cc(I)c2OCC[C@@H](C(N)=O)NC1=O	-4%	1.0	7.5	0	-1.6	0.3	.

Reprinted from the part before: four compounds, then new ones.
SMILES	Vif A3G	HNF4A DNA FP	UCH37 inh	Beta2AR agonist	A1 inh	LANA-H2B inh	E coli growth
CCOc1ccccc1NC(=O)NCc1cccnc1	7%	2.8	1.2	-7	0.3	0.9	0.65
O=C(CSc1nnnn1-c1ccccc1)Nc1ccccc1	.	2.5	0.3	6	0.3	-3.6	0.69
CCCCCc1nnc(NC(=O)c2ccc3nc[nH]c3c2)s1	-1%	3.3	1.2	11	-0.1	0.7	0.66
CC(C)C[C@@H]1NC(=O)[C@H](CO)NC(=O)c2cc([N+](=O)[O-])cc(I)c2OCC[C@@H](C(N)=O)NC1=O	-4%	1.0	7.5	0	-1.6	0.3	.
Cc1nn(C)c(C(=O)N/N=C/c2cccnc2)c1Cl	.	0.3	.	3	1.1	0.7	.
Cc1onc(-c2ccccc2)c1C(=O)N1CCN(c2ccc([N+](=O)[O-])cc2)CC1	0%	1.5	5.5	-1	1.4	16*	0.65
Cc1cc(=O)[nH]c(SCC(=O)Nc2nnc(CC(C)C)s2)n1	0%	0.4	.	0	0.4	-1.4	0.67
COc1ccccc1CNCC(=O)Nc1ccc(C#N)cc1	-1%	0.1	2.5	3	0.3	-0.9	0.68
CN/N=C/c1ccc(C#N)cc1	2%	1.0	.	-2	0.7	-3.8	.
O=C(Nc1ccccc1)OCCCCOC(=O)Nc1ccccc1	-12%	4.3	1.6	-9	.	.	0.69
CCOC(=O)C1=C(C)NC(C)=C(C(=O)OCC)C1c1ccc(OC)cc1	-5%	2.9	-30	-8	0.3	-1.6	0.73
CN(C)C(CNC(=O)c1ccc(S(=O)(=O)N(C)C)cc1)Cc1ccccc1 (stereo not drawn)	-7%	2.5	-0.8	-3	-0.5	8.6	0.56
O=C(Nc1ccccc1C(=O)NCCN1CCOCC1)c1ccc(Cl)cc1Cl	14%	4.5	2.6	-6	0.8	-0.6	0.71
Cc1ccc(NC(=O)COC(=O)Cc2ccsc2)c(C)c1	-5%	-0.1	5.7	6	0.5	-1.5	0.7
COC(=O)c1ccc(COC(=O)C23CC4CC(CC(O)(C4)C2)C3)o1	8%	0.0	6.5	-3	0.1	-6.9	0.66
CC(=O)c1ccc(NC(=O)C(C)OC(=O)C2CCN(c3ccc(C(F)(F)F)cn3)CC2)cc1 (stereo not drawn)	0%	-3.0	1.1	3	-0.4	-0.7	0.68
CN1C(=O)c2ccccc2C(O)c2ccccc21 (stereo not drawn)	.	1.6	4.0	-1	1.3	0.7	0.71
CCN(CC)c1c([N+](=O)[O-])c(=O)sc2ccccc12	.	2.2	5.9	-3	-2.3	7.6	0.7
CCOCCCNC(=O)CN1CCN(Cc2ccccc2C)C1=O	3%	-0.5	3.5	4	-0.2	-2.3	0.66
CC/C(C)=N/Nc1nc2sc3c(c2c(=O)[nH]1)CC(C)(C)OC3	22%	-3.8	.	-5	0.1	3.3	.
CC1CN(C(=O)CCC(=O)NC2CCN(Cc3ccccc3)CC2)c2ccccc2O1 (stereo not drawn)	.	-1.8	4.1	-8	0.2	4.1	0.66
O=C(Cc1c(Sc2ccccc2)c2ccccc2n1Cc1ccccc1)NCCO	.	0.5	0.3	1	0.0	1.6	0.71
CC(C)Oc1cccc(C(=O)NC(=S)NCc2cccnc2)c1	-9%	6.7	6.2	-25	0.3	2.1	0.7
Cc1cc(C)nc(SCc2nnc(SCC(=O)Nc3ncc(C)s3)n2Cc2ccco2)n1	22%	2.1	0.8	-10	0.4	2.8	0.71
C[C@H](CO)N1C[C@H](C)[C@@H](CN(C)C(=O)Nc2ccccc2)Oc2c(cccc2N(C)C)C1=O	7%	-0.8	-0.2	-3	0.0	-461	0.7
S=C(NCCc1ccccn1)NC1CC2CCC1C2 (stereo not drawn)	-1%	-1.5	2.6	-9	0.0	1.3	0.65
O=C(CSc1ccc2c(c1)OCCO2)Nc1cccnc1Cl	-11%	-1.1	2.9	11	0.2	4.2	0.67
O=C1OCCC1Sc1nnc(-c2ccc(Cl)cc2)n1Cc1ccccc1 (stereo not drawn)	.	1.7	1.8	1	2.6	3.1	0.68
Cc1cc([N+](=O)[O-])ccc1NC(=O)c1ccco1	-5%	-0.3	-2.0	-4	0.3	10	0.72
O=C(NCc1cccnc1)c1cnc2ccccc2n1	-3%	-3.3	1.8	-5	-0.5	3.7	0.64
O=C(NC1CC1)c1cc2cc(Br)ccc2s1	.	-2.3	1.7	-4	0.2	6.6	0.69
CC1CCCN(S(=O)(=O)c2ccc3oc(=O)ccc3c2)C1 (stereo not drawn)	-3%	-1.2	0.6	-5	0.1	-1.0	0.69
CN(C)CCC1CCN(c2cc(C#N)c(C#N)cc2[N+](=O)[O-])CC1	17%	0.7	2.5	-3	0.8	-2.2	0.71
COc1cc(OC)cc(C(=O)NCCCCNC(=O)c2cc(OC)cc(OC)c2)c1	.	1.4	0.6	-6	0.4	2.4	0.67
CC(C)CNS(=O)(=O)c1ccc(CCC(=O)NC2CCCC2)cc1	3%	2.9	2.5	12	-1.0	-5.7	0.72
CCC(C)(C(=O)NC1CCCC1)N(C(=O)CC1NC(=O)NC1=O)c1c(C)n(C)n(-c2ccccc2)c1=O (stereo not drawn)	-2%	0.1	5.6	-13	-0.9	0.8	0.72
O=C(NCC(c1ccco1)N1CCCCC1)c1ccc(COc2ccccc2)cc1 (stereo not drawn)	-6%	1.7	0.8	-6	0.8	-1.1	0.66
COc1cccc(OCCNS(=O)(=O)c2ccccc2[N+](=O)[O-])c1	.	-0.9	1.6	9	0.1	0.9	0.66
CCOC(=O)C1C(=O)C(=O)N(Cc2ccccc2)C1C(=O)OCC (stereo not drawn)	-1%	7.0	-0.5	1	.	.	0.67
CC(C)OCCCn1c(=O)c2ccccc2n2c(CCC(=O)NCc3ccccn3)nnc12	.	1.6	-1.4	-15	-0.7	3.1	0.71
CN(C)c1ccc(C(=O)N2CCCC(N3CCN(Cc4ccc5c(c4)OCO5)CC3)C2)cc1 (stereo not drawn)	.	0.4	-0.3	-4	-0.8	-5.6	0.72
Cc1cc(C)n(-c2ccc([N+](=O)[O-])cc2)n1	.	6.9	4.9	-7	0.2	3.9	0.7
